# Bioassay records deposited in PubChem by several laboratories.
# RecA splice inh: Mtb RecA intein splicing inhibitors, primary screen, biochemical, fluorescence, HTS | Protein RecA (Mycobacterium tuberculosis (strain ATCC 25618 / H37Rv)), P9WHJ3 | inhibition, %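 (about 9 µM by stock and volumes)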 | hit rate 0.75% among 290,000 | cell-free RecA intein splicing; in the data active = inhibition above about 30%; inconclusive = no clear call, values can overlap the other calls;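 also: 0% = vehicle wells and 100% = reference inhibitor control wells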
# Target sequence (P9WHJ3 whole entry, looked up, canonical isoform): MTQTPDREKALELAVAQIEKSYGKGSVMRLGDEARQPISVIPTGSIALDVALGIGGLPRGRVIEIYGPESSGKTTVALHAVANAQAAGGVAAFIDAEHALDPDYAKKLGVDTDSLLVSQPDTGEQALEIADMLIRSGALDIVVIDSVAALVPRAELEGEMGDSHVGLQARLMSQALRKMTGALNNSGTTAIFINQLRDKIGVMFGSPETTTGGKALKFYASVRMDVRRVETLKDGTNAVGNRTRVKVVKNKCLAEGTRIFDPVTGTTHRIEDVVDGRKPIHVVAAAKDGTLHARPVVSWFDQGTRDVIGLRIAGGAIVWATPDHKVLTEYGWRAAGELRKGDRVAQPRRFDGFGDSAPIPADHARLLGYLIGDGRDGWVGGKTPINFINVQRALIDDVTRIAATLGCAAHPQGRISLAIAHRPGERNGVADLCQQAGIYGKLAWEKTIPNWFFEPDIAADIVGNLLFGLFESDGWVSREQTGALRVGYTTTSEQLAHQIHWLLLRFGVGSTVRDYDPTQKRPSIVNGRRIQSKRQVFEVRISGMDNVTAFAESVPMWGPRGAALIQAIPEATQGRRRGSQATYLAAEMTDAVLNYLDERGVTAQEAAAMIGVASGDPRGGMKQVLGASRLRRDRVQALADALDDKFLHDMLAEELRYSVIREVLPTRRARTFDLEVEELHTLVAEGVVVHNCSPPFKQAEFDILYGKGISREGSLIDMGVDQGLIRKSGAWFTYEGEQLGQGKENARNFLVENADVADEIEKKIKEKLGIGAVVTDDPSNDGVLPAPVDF
# Arbovirus inh: antivirals against arbovirus infection, primary screen, cell-based, full library, 10K replicate subset; hit rate 0.37% among 200,000; inhibition, % at 10 µM; AID 1251, 2008; arbovirus infection cell-based antiviral screen;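 active = inhibition from about 30%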;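 also: bluetongue infection of BSR cells; cell survival read as ATP light after 72 h; 0% = infected wells without compound and 100% = uninfected wells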
# Mtb H37Rv: M. tuberculosis H37Rv growth inhibitors, H37Rv strain (AID 1626). M. tuberculosis H37Rv growth inhibition; higher % means a stronger effect. inhibition, % at 10 µM; hits with a dose series show IC50 in µM. hit rate 0.95% among 220,000;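 active = confirmed in a dose series; inconclusive = inhibition above 80% but not taken into the dose series; inactive = below 80% or under 30% at every dose of the series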;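 also: bacteria incubated seven days before Alamar blue readout; 0% = bacteria only wells and 100% = bacteria with antibiotic wells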
# Mtb bLac sens: beta-lactam sensitization of Mtb H37Rv, H37Rv | M. tuberculosis H37Rv growth with meropenem, percent inhibition; hits of this screen are not shown here | inhibition, % at 25 µM | hit rate 0.27% among 330,000 | AID 434955, 2010;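 active = about 74% or more and at least 40 points above the plate without the antibiotic, then above 30% in a dose series; inconclusive = first-round hits that could not be retested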;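 also: growth measured after seven days incubation then overnight dye step; 0% = bacteria only wells and 100% = bacteria with antibiotic; twin plates without the antibiotic show which effects depend on it; some results filed as inactive read as strong as hits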
# YopH inh: YopH tyrosine phosphatase inhibitors, primary screen, biochemical, fluorescence Ex485/Em525 | hit rate 0.16% among 140,000 | inhibition, %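 (about 10 µM by stock and volumes)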;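 active = inhibition of 50% or more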;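 also: controls were vehicle for no effect and minimum signal wells for full effect; inactives centre near -20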
# Arbovirus inh repeat: also measured in Arbovirus inh; calls as there; inhibition, %; measured here: 10K subset replicate screen; many hits read low in the repeat;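 first of two repeat runs on a subset; 0% = infected and 100% = uninfected wells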
# An asterisk follows results filed as active; ? = inconclusive; · = no result given.
SMILES,RecA splice inh,Arbovirus inh,Mtb H37Rv,Mtb bLac sens,YopH inh,others
Cn1cccc1Cc1nnc(SCC(=O)Nc2ccc(Cl)cc2)n1-c1ccc(F)cc1,1.9,-11,8%,0,-18,
Cc1ccc(OCC(=O)NCc2ccco2)c([N+](=O)[O-])n1,-0.5,9,6%,-6,·,
O=C(CN1CCc2ccccc2C1)Nc1cc(S(=O)(=O)N2CCOCC2)ccc1N1CCCC1,-3.2,-11,3%,2,-17,
CCCCNS(=O)(=O)c1ccc(S(=O)(=O)N2CCC3(CC2)OCCO3)cc1,-7.9,7,2%,-10,-22,
Fc1cccc(CCN2C(=S)NC[C@@H]2Cc2ccccc2)c1,-0.7,4,0%,-6,·,
CCSc1nnc(NC(=O)C2CC(=O)N(Cc3ccccc3)C2)s1 (stereo not given),-6.2,4,-7%,-4,·,
CCOc1ccc(C(=O)NNC(=O)CCNC(=O)c2ccco2)cc1OC,1.0,·,·,2,·,
CC(C)CNS(=O)(=O)c1ccc(CCC(=O)NCC2CCCO2)cc1 (stereo not given),2.1,-3,-13%,-3,18,
Cc1sc2nc(C)n(/N=C/c3ccc(O)cc3)c(=O)c2c1C,1.9,1,-12%,-1,-32,
CSc1nc(/C=C2\C=Nc3ccccc32)c(O)n1C,0.2,-9,10%,-5,-31,
Cc1cc(N2CCCC2)nc(N2C3CCC2CC(O)(c2ccc(F)cc2)C3)n1 (stereo not given),2.1,-6,1%,-3,·,
CN(CC(=O)Nc1c(Cl)cccc1Cl)C(=O)CNC(=O)c1ccc2ccccc2c1,-0.4,·,·,0,·,
O=C1Nc2ccccc2C12OCC(COc1ccc(Cl)cc1)O2 (stereo not given),11,0,-7%,3,-26,
O=S(=O)(Nc1cccc(-n2cnnn2)c1)c1cccc(Cl)c1,-3.3,·,·,-6,·,
CCOC(=O)C1=C(CNC2CCCCC2)NC(=O)NC1c1cc(C)ccc1C (stereo not given),0.0,-10,2%,0,-13,
Cc1occc1C(=O)N/N=C/c1cccnc1,-3.1,-1,-8%,1,-40,
CCOc1cc(-c2cn(S(=O)(=O)c3cccc4nsnc34)nc2N)cc(OCC)c1OCC,-1.0,-2,0%,4,-10,
COc1cccc(C2CC3C(=O)C=CC2N3Cc2ccccc2)c1 (stereo not given),3.7,-2,4%,6,-8,
CCOC(=O)N1CCN(Cc2nnc(-c3cccc(Br)c3)o2)CC1,0.4,·,·,-3,·,
O=[N+]([O-])c1cccc(S(=O)(=O)N2CCC(c3nc(-c4ccncc4)no3)CC2)c1,-6.6,-14,3%,3,-20,
COc1ccc(F)cc1C(=O)C1CCCN(Cc2cnc(C)s2)C1 (stereo not given),-1.1,0,5%,6,·,
O=S(=O)(c1ccc2ccccc2c1)n1cccn1,-2.0,·,·,-6,·,
CCn1ccnc1CN(C)C(=O)C1CCC(=O)N(Cc2cccc(C(F)(F)F)c2)C1 (stereo not given),-1.1,·,·,-10,·,
COC(=O)c1ccc(Oc2cc(C)nc(-n3nc(C)cc3C)n2)cc1,1.6,-11,14%,85,-32,
Cc1cc([N+](=O)[O-])nn1CC(=O)Nc1nc2ccccc2s1,0.6,6,·,-8,·,
COc1cc2c(cc1OC)C(c1ccc([N+](=O)[O-])cc1)N(C(C)=O)CC2 (stereo not given),0.0,·,·,1,·,
COCCCNc1nc2c(c(=O)[nH]c(=O)n2C)n1CC(O)COc1ccccc1C (stereo not given),·,5,-9%,-3,-19,Arbovirus inh repeat=1
CCn1nnc(NC(=O)c2ccco2)n1,-1.2,·,·,0,·,
O=C(COC(=O)C1CC(O)CN1C(=O)Oc1ccccc1)c1ccc(Br)cc1 (stereo not given),-1.1,-1,0%,-2,-13,
COc1cccc(C(=O)NC(Cc2ccccc2)c2ccc3c(c2)OCCCO3)c1 (stereo not given),0.0,8,1%,-4,3,
COc1ccc(S(=O)(=O)N2CCOC23CCN(S(C)(=O)=O)CC3)cc1,1.4,·,·,-11,·,
COc1ccc(C2CC(c3ccccc3)=NN2C(=O)COC(=O)/C=C/c2ccc(O)c(OC)c2)cc1 (stereo not given),14,·,13%,5,·,
O=C(NCc1cccnc1)C1CCN(S(=O)(=O)c2cc(Cl)ccc2Cl)CC1,-0.5,·,·,5,·,
CN(c1cccc(NC(=O)CN(c2ccc(C34CC5CC(CC(C5)C3)C4)cc2)S(C)(=O)=O)c1)S(C)(=O)=O,3.5,-32,?,-2,-19,
O=C(O)/C=C/C(=O)Nc1ccc(-n2nccc2C(F)(F)F)cc1,·,·,>100µM*,90,·,
Cn1cc(Br)c(NS(=O)(=O)c2ccc(Cl)s2)n1,1.1,·,-2%,0,·,
O=C(CCCCCN1C(=O)c2cccc3cccc(c23)C1=O)NCc1cccnc1,-0.1,·,0%,-12,·,
Cc1ccccc1-c1n[nH]c(=S)n1/N=C/C=C/c1ccco1,·,·,1%,2,·,
Cc1cc(NC(=O)c2ccc(COc3ccc(Cl)c(C)c3)o2)no1,-1.2,-18,-10%,2,-12,
CC1(C)CC(N(Cc2cccs2)C(=O)c2ccco2)CCO1 (stereo not given),-5.5,5,2%,-3,-25,

# 19 structures already listed, sorted by SMILES length, rising:
SMILES,RecA splice inh,Arbovirus inh,Mtb H37Rv,Mtb bLac sens,YopH inh,others
CCn1nnc(NC(=O)c2ccco2)n1,-1.2,·,·,0,·,
Cc1occc1C(=O)N/N=C/c1cccnc1,-3.1,-1,-8%,1,-40,
O=S(=O)(c1ccc2ccccc2c1)n1cccn1,-2.0,·,·,-6,·,
Cn1cc(Br)c(NS(=O)(=O)c2ccc(Cl)s2)n1,1.1,·,-2%,0,·,
CC1(C)CC(N(Cc2cccs2)C(=O)c2ccco2)CCO1 (stereo not given),-5.5,5,2%,-3,-25,
COc1cccc(C2CC3C(=O)C=CC2N3Cc2ccccc2)c1 (stereo not given),3.7,-2,4%,6,-8,
COc1ccc(F)cc1C(=O)C1CCCN(Cc2cnc(C)s2)C1 (stereo not given),-1.1,0,5%,6,·,
Cc1ccccc1-c1n[nH]c(=S)n1/N=C/C=C/c1ccco1,·,·,1%,2,·,
CCOC(=O)N1CCN(Cc2nnc(-c3cccc(Br)c3)o2)CC1,0.4,·,·,-3,·,
Cc1cc([N+](=O)[O-])nn1CC(=O)Nc1nc2ccccc2s1,0.6,6,·,-8,·,
COC(=O)c1ccc(Oc2cc(C)nc(-n3nc(C)cc3C)n2)cc1,1.6,-11,14%,85,-32,
COc1ccc(S(=O)(=O)N2CCOC23CCN(S(C)(=O)=O)CC3)cc1,1.4,·,·,-11,·,
O=C(COC(=O)C1CC(O)CN1C(=O)Oc1ccccc1)c1ccc(Br)cc1 (stereo not given),-1.1,-1,0%,-2,-13,
COCCCNc1nc2c(c(=O)[nH]c(=O)n2C)n1CC(O)COc1ccccc1C (stereo not given),·,5,-9%,-3,-19,Arbovirus inh repeat=1
CCn1ccnc1CN(C)C(=O)C1CCC(=O)N(Cc2cccc(C(F)(F)F)c2)C1 (stereo not given),-1.1,·,·,-10,·,
CCOc1cc(-c2cn(S(=O)(=O)c3cccc4nsnc34)nc2N)cc(OCC)c1OCC,-1.0,-2,0%,4,-10,
O=[N+]([O-])c1cccc(S(=O)(=O)N2CCC(c3nc(-c4ccncc4)no3)CC2)c1,-6.6,-14,3%,3,-20,
COc1ccc(C2CC(c3ccccc3)=NN2C(=O)COC(=O)/C=C/c2ccc(O)c(OC)c2)cc1 (stereo not given),14,·,13%,5,·,
CN(c1cccc(NC(=O)CN(c2ccc(C34CC5CC(CC(C5)C3)C4)cc2)S(C)(=O)=O)c1)S(C)(=O)=O,3.5,-32,?,-2,-19,

# Further structures follow.
SMILES,RecA splice inh,Arbovirus inh,Mtb H37Rv,Mtb bLac sens,YopH inh,others
COc1cc2nc(Cl)nc(N3CCOCC3)c2cc1OC,-1.6,17,-8%,-2,·,
CCN(CC)S(=O)(=O)c1cc(NC(=O)CCCOc2ccc(C(C)=O)cc2)ccc1C,1.5,-8,7%,-1,-33,
COc1ccc(CCNC(=O)c2ccc(=O)[nH]c2)cc1OC,-2.1,·,·,-1,·,
COc1ccc(NC(=O)C(=O)N/N=C(\C)CC(=O)Nc2ccccn2)c(OC)c1,-2.4,·,-16%,-6,·,
Cc1nnc(-c2ccc(Cl)cc2)nc1NCCN(C)C,-0.9,6,1%,1,·,
CCCNC(=O)CCc1c(C)nc2nc(C)nn2c1C,-1.5,4,·,1,·,
CCC1CCCCN1CCCNC(=O)C1CCC(=O)N1Cc1ccc(C)cc1 (stereo not given),1.5,1,5%,-6,-50,
CCN(CC)C(=O)C1CCCN(Cc2ccc(OC)c(C)c2)C1 (stereo not given),-1.7,0,3%,-13,-44,
CCCCS(=O)CC(COCc1ccccc1)OC(=O)CSc1nc(C)cc(C)n1 (stereo not given),2.2,3,-5%,-10,-6,Arbovirus inh repeat=-1
COC(=O)c1scc(C)c1N/N=C(\C)c1ccc(F)cc1F,5.1,0,-16%,-4,-9,
CC(=O)CSc1ncnc2nc[nH]c12,-3.6,11,-4%,-7,-15,
S=c1[nH]c2cc(Cl)c3cccnc3c2o1,-0.2,·,·,-4,·,
Cc1ccc(C)c(N(C(=O)Cn2nnc3ccccc32)C(C(=O)NCc2ccco2)c2ccncc2)c1 (stereo not given),6.2,3,-3%,3,-4,
CCOc1ccc(N(CC(=O)Nc2ccc(C)c(C)c2)S(C)(=O)=O)cc1,-1.1,·,·,-9,·,
O=C(CCCn1c(=S)[nH]c2ccccc2c1=O)NCCSCc1ccccc1,-0.6,1,-5%,-7,·,
O=C(c1ccccc1F)N1CCN(CC2CC3C=CC2C3)CC1 (stereo not given),-0.7,-2,-4%,-8,-34,
Cc1ccc2oc(=O)c3cnn(CC(=O)N(Cc4ccco4)C4CCCCC4)c3c2c1,3.5,-9,2%,7,-37,
CCOc1ccc(OCC)c(NC(=O)CN(C)S(=O)(=O)c2ccc3nc(C)sc3c2)c1,1.9,-10,1%,13,25,
CC(C)CC(=O)NCc1ccc2[nH]c3c(c2c1)CCCC3,-27,16,-4%,-4,·,
COc1ccc(CCNC(=O)c2ccco2)cc1,-2.1,13,-5%,-5,-56,Arbovirus inh repeat=-2
COc1cc(/C=N/Nc2cccc3cccnc23)cc(OC)c1O,7.4,-4,19%,36,·,
COc1ccccc1NC(=O)C(=O)N(c1cccnc1)C(C(=O)NC(C)(C)C)c1ccccc1 (stereo not given),-2.0,2,2%,3,·,
O=C(c1cccc(S(=O)(=O)N2CCCCC2)c1)N1CCN(S(=O)(=O)c2ccc(F)cc2)CC1,-3.1,9,·,-3,-17,
OCOCCCn1c(C2CCCN2c2nc(-c3ccc(F)cc3)cs2)nc2cc(Cl)c(N3CCCCC3)cc21 (stereo not given),12,·,8%,51,·,
CCOc1ccc(NC(=S)N2CCN(S(=O)(=O)c3ccccc3)CC2)cc1,0.9,·,·,-4,·,
CC(=O)Nc1ccc(S(=O)(=O)NNC(=O)c2ccc(S(=O)(=O)N3CCCCC3)cc2)cc1,0.4,9,-12%,0,-21,
Cc1c(CCC(=O)N[C@@H](CCCNC(N)=O)C(=O)O)c(=O)oc2cc3oc4c(c3cc12)CCCC4,-0.6,·,·,9,·,
CCOc1ccc(CCNC(=O)CN(C)S(=O)(=O)c2cccs2)cc1OCC,-0.7,·,·,-12,·,
C=CCOC(=O)C1=C[C@H](c2ccc(C(F)(F)F)cc2)C[C@H](OCCCCO)O1,4.0,·,0%,-10,·,
CC(=O)c1sc2nc(=O)c(C)nn2c1C,0.3,7,-7%,-5,-23,
CNS(=O)(=O)c1cccc(C(=O)OCC(=O)Nc2ccccc2F)c1,0.7,0,-4%,-9,·,
COc1cc(NC(=S)N2CCCCC2C)c(OC)cc1Cl (stereo not given),2.6,2,5%,6,·,

# 3 compounds from above, arranged by SMILES length, high to low.
SMILES,RecA splice inh,Arbovirus inh,Mtb H37Rv,Mtb bLac sens,YopH inh,others
Cc1c(CCC(=O)N[C@@H](CCCNC(N)=O)C(=O)O)c(=O)oc2cc3oc4c(c3cc12)CCCC4,-0.6,·,·,9,·,
CC(=O)Nc1ccc(S(=O)(=O)NNC(=O)c2ccc(S(=O)(=O)N3CCCCC3)cc2)cc1,0.4,9,-12%,0,-21,
C=CCOC(=O)C1=C[C@H](c2ccc(C(F)(F)F)cc2)C[C@H](OCCCCO)O1,4.0,·,0%,-10,·,

# These rows are one share of the data; rates above refer to the full screens.
